# Compound activity deposited in PubChem by National Center for Advancing Translational Sciences (NCATS).
# hNpr1 antagonist: human Npr1 receptor antagonism. Potency, µM (doses to about 46.3 µM), without a hit: at the highest dose activity change, negative = inhibition, actives largely listed as inhibitors. HEK293 hNpr1 GloSensor cGMP, ANP-stimulated luminescence. actives 1.6% (n = 76,000); active = well fitted inhibition curve with a large enough effect; inconclusive = small, poorly fitted or top-dose-only effect; inactive = no such curve, though single readings can be large or run the other way;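 note: nearly all actives have a fitted effect of over 60% in size; nearly all hits also lower the signal before the agonist is added; a reference antagonist and vehicle were the controls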
# Target sequence (P16066 whole entry, looked up): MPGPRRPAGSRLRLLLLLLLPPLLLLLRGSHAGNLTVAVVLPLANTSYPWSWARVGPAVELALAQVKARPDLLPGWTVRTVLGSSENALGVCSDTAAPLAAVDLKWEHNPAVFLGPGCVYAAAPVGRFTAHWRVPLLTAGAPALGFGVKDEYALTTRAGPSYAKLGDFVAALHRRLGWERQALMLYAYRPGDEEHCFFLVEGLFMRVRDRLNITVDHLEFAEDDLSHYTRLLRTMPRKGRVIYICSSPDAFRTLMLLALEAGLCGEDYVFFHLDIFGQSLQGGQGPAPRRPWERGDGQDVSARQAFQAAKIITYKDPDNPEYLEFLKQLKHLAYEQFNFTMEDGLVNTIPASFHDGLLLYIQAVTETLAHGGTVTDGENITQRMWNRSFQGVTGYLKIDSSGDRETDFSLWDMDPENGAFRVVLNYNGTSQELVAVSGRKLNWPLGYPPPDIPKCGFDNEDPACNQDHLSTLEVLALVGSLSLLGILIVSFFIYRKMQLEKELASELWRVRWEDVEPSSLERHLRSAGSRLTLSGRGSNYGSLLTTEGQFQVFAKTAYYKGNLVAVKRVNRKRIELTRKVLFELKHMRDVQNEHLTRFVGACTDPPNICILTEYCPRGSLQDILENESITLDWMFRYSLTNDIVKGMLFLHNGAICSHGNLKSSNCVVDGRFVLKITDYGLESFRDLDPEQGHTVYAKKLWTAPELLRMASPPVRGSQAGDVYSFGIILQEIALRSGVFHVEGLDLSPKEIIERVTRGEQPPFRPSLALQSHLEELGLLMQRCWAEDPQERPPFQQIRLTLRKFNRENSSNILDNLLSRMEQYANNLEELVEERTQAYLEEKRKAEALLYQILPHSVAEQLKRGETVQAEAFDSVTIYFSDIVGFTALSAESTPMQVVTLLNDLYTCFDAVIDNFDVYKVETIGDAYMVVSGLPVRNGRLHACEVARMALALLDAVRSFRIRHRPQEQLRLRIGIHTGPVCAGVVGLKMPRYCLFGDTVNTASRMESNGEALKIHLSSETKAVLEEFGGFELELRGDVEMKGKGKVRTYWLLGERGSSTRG
#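 Compound pre-incubated 30 min at room temperature on GloSensor-loaded HEK293 cells stably carrying hNpr1 and the pGS-40F cGMP biosensor. Stimulation uses hNppA at 0.1 nM final; luminescence is taken at baseline and 20 min post-agonist.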
# Active calls of the source: *; ? = inconclusive; [ ] = dose if it differs, or a comment. % is set by controls: 0 for no effect and ±100 for the full control effect; potency is the fitted concentration of half-maximal effect. An excerpt (hit frequency here may not be typical).
Structure | hNpr1 antagonist
O=C(Cc1c[nH]c2ccccc12)N1CCC(N2C(=O)C(O)C23CCCCC3)CC1 (configuration not stated) | 5%
O[C@@H]1C[C@@H](c2nc(-c3ccccn3)no2)N(Cc2cccc(OC(F)(F)F)c2)C1 | -16%[70.6 µM]
Cc1cc(C(=O)N2CCc3nnc([C@@H]4C[C@@H](O)CN4C)n3CC2)n(C)n1 | 3%
COc1cccc(CNC(=O)Cn2cccc2-c2nc(-c3ccc(OC)c(F)c3)no2)c1 | -2%
O=C(Cc1cccc(Cl)c1)N1CCCC(n2cc(-c3nc(-c4ccccc4)no3)nn2)C1 (configuration not stated) | -22%
Cn1cccc1C(=O)N1CCCC(c2nc(-c3ccccc3)no2)CCNC(=O)CC1 (configuration not stated) | 3%
CCS(=O)(=O)N1CCCN(C(=O)C2CC2)C(c2ccccc2)CC(=O)NCC1 (configuration not stated) | -2%
O=C(CN1CC2CC(C1)[C@H]1CCCC(=O)N1C2)NCCCN1CCCc2ccccc21 (some centres not stated) | -3%
Cc1cccc(NC(=O)N2CC(c3nnc(-c4ccncc4)o3)C3(CCOCC3)C2)c1C (configuration not stated) | 0%
COc1ccc(-c2cc(-c3ccc4cn[nH]c4c3)cn3cncc23)cc1 | -14%[70.6 µM]
Cc1cc(C)c(CNC(=O)c2c(C)sc3ccn(C)c(=O)c23)c(C)c1 | -2%
CC(C)CN1C(=O)CO[C@H](c2ccc(NC(=O)c3ccccc3)cc2)[C@H]1CO | -24%[70.6 µM]
Cc1c(C(=O)NCc2cncn2CC(C)C)oc2c(F)cccc12 | -8%
CN1C(=O)C2(CCN(C(=O)CCC3CCCCC3)CC2)c2ccccc21 | -4%
COCCN1CCCCCC(O)c2cc(C(=O)NCCN3CCCCC3)ccc21 (configuration not stated) | -2%
CCOc1ccccc1CN1CCC2(CCN(C(=O)Cc3cccc(Cl)c3)CC2)Oc2ccccc21 | -1%
CCn1cnnc1CC1CCN(S(=O)(=O)c2ccccc2C)CC1 | -9%
Cc1cccc(C)c1NC(=O)CN1C(=O)NC2(CCC(C)CC2)C1=O (configuration not stated) | 1%
COCc1nnc(NC(=O)C2c3ccccc3C(=O)N(C3CCCC3)C23CCCC3)s1 (configuration not stated) | -5%
Cc1ccc(CNC(=O)N2CC(Oc3cccc(-c4nc(C)no4)c3)C2)cc1 | -13%
COc1cccc(Nc2ncc(-c3ccccc3)c3c2OCC3)c1 | ?
COc1ccc(C(=O)N2CCCC3(CCC(=O)N(Cc4ccncc4)C3)C2)o1 (configuration not stated) | -3%
Cc1cc2c(c(=O)n(-c3ccccc3)c(=O)n2CC(=O)Nc2ccccc2C(F)(F)F)n1C | -1%
O=C(Nc1cccnc1)c1ccc2c(c1)OCCN(c1ccccc1)C2 | -21%[70.6 µM]
CO[C@H]1[C@H](NC(=O)c2cnn3cccnc23)c2ccccc2C12CCNCC2 | 3%
Cc1cc2nc3n(c(=O)c2n1CC(=O)NC1CCC(C)CC1)CCCCC3 (configuration not stated) | -6%
O=C(Nc1cccs1)O[C@H]1COCCN(c2nc3ccccc3o2)C1 | -1%[70.6 µM]
CN(C)CCN(C)Cc1cn(Cc2ccccc2)nc1-c1ccc2c(c1)OCO2 | 3%
O=C(NCc1nc(-c2ccncc2)n[nH]1)[C@H]1CCC[C@H](O)C1 | 0%
Cc1ccc(S(=O)(=O)N2C[C@@H](F)C[C@H]2C(=O)N2CCCCC2)c(C)c1 | -12%
O=C(Nc1ccccc1)c1cc2n(n1)CCN(C(=O)COc1ccccc1)C2 | -22%
COc1ccc(C2Cn3nnc(C(=O)N4CCN(C(=O)c5cccc(Cl)c5)CC4)c3CO2)cc1 (configuration not stated) | 7.1µM*
O=C(Nc1cccc(Cl)c1)C1CN(c2ccccc2)C(=O)N1 (configuration not stated) | 0%[70.6 µM]
CCOCCOC1CCN(C(=O)Nc2ccccc2)CC1 | -2%
CN(CC1CCOCC1)S(=O)(=O)c1ccc(C(F)(F)F)cc1 | 0%
CC(C)(C)NS(=O)(=O)c1ccccc1-c1cnc2c(C(N)=O)cnn2c1 | -2%
Cc1cc(C)n(CC(=O)NCc2cc(N3CCOCC3)ncn2)c(=O)n1 | 5%
COc1ccc(C(=O)N2CCOCC3(CN(Cc4cc(C)cc(F)c4)C3)C2)cc1OC | -4%[70.6 µM]
CN(CC1CCOCC1)C(=O)NCc1ccc(F)cc1 | -9%
CCOc1ccccc1CN1CCN(c2cccc(C#N)n2)CC1CCO (configuration not stated) | 1%
O=C(CCC[C@@H]1[C@H]2CCCN3CCC[C@@H](CN1C(=O)c1ccccc1)[C@@H]23)NCc1ccc(F)cc1 | 0%
CC(C)N1C[C@H](O)C[C@H]1c1nnc2n1CCN(C(=O)CCCc1c[nH]c3ccccc13)C2 | -1%
Cc1nc2scc(CC(=O)NCC(C)C)n2c(=O)c1-c1cc(C)n(-c2cccc(Cl)c2)n1 | 7%
Cc1cccc(C(=O)N[C@@H]2CN(c3ncccn3)C[C@H]2CO)n1 | 6%
O=C(O)COCC(=O)N[C@H]1CCN2C(=O)c3cc(-c4ccc(Cl)cc4)ccc3NC(=O)[C@H]12 | 2%
O=C(NCCc1ccc(Cl)cc1)c1nc(-c2cc(Cl)cc(Cl)c2)c2ccccn12 | 0%
CN(C)c1cc(=O)c2ccnc(-c3ccc(O)c(F)c3)c2o1 | -2%[70.6 µM]
Cc1nc(-c2ccccc2)n(CC(=O)Nc2ccc(F)c(Cl)c2)c(=O)c1CCO | -27%
Cc1noc(C)c1S(=O)(=O)N1CC(N(CC(C)C)C2CCOCC2)C1 | -22%
Cc1ccc(CN2CCn3c(nnc3[C@@H]3C[C@@H](O)CN3Cc3cccnc3)C2)o1 | 8%

# Fetched one by one from the list above:
Structure | hNpr1 antagonist
Cc1nc2scc(CC(=O)NCC(C)C)n2c(=O)c1-c1cc(C)n(-c2cccc(Cl)c2)n1 | 7%
O=C(CN1CC2CC(C1)[C@H]1CCCC(=O)N1C2)NCCCN1CCCc2ccccc21 (some centres not stated) | -3%

# Next section.
Structure | hNpr1 antagonist
O=C(Nc1cccc(C(F)(F)F)c1)c1nc2c(o1)CCN(Cc1ccccc1F)CC2 | ?
Cc1ncccc1OC1(C(=O)O)CCN(C(=O)c2cccc(F)c2)CC1 | 10%
Cc1nnsc1C(=O)N[C@H]1CCN(C(=O)COCC(=O)O)[C@H](C(=O)N[C@H](Cc2ccccc2)C(N)=O)C1 | 1%
CO[C@H]1COCCN(C(=O)c2ccc(C(F)(F)F)cc2)C1 | -2%[70.6 µM]
O=C(c1cc2ccccc2[nH]1)N1CCN(C(=O)c2nnn3c2COC(c2ccc(Cl)cc2)C3)CC1 (configuration not stated) | -24%
CCOC(=O)C1=CN(CC(=O)Nc2cc(C)ccc2OC)S(=O)(=O)N=C1C | 1%
O=C(Cn1nc2c(cc1=O)CCCC2)NCc1nnc2ccccn12 | 0%
COC1CCOC2(CCN(S(=O)(=O)c3ccc(F)cc3)CC2)C1 (configuration not stated) | -2%
O=C1NC2(CCN(C(=O)c3ccccc3F)C2)OCc2ccccc21 (configuration not stated) | -1%
CCCS(=O)(=O)N[C@@H]1CN(Cc2ccncc2)C[C@H]1CN(C)C | 2%
CCc1ocnc1C(=O)N1CCCC(c2[nH]ncc2-c2ccc(F)cc2)C1 (configuration not stated) | -12%
CN1C(=O)c2cccn2CC1C(=O)NCCc1c[nH]c2ccccc12 (configuration not stated) | 2%
CCC(C(=O)N1CCN(C(=O)COc2ccccc2)CC1)n1cccn1 (configuration not stated) | -4%
CN1CCC(N2CC[C@H](c3nnc(-c4ccc(N(C)C)cc4)o3)C2)CC1 | 5%[70.6 µM]
O=C(Nc1cccc(-n2cccn2)c1)C1CCCN1C(=O)CCn1cccn1 (configuration not stated) | 0%
CC(c1cccs1)N(C)C(=O)c1ccccc1 (configuration not stated) | 25%[70.6 µM]
Cc1c(Cl)cccc1NC(=O)N(C)CC1CCOC1 (configuration not stated) | 5%
Cc1ccsc1C(=O)N1C[C@@H]2CCCN3CCC[C@@H]([C@H]23)[C@H]1CCCC(=O)N1CCOCC1 | -5%
FC(F)(F)c1cccc(C2=NOC3(CCCN(Cc4cccs4)C3)C2)c1 (configuration not stated) | -9%
O=C(C1CCCC1)N1CC[C@](O)(c2ccccc2)[C@H](N2CCCC2)C1 | 1%
Cc1cccc(S(=O)(=O)N2CCC(Oc3ncccc3C(=O)N3CCOCC3)C2)c1 (configuration not stated) | 4%
COc1ccccc1-c1[nH]ncc1CN1CCCC(C(=O)NCc2ccccc2)CCNC(=O)CC1 (configuration not stated) | 0%
N#Cc1ccc(C(=O)N2CC[C@H]3NC(=O)N(c4ccccc4)C(=O)[C@H]32)cc1 | 2%[70.6 µM]
O=[S+]1([O-])NCC2(CCN(Cc3ccccn3)CC2)Nc2ccccc21 | -3%
Cn1c(CCC(=O)NC2CCOCC2)nc2cc(S(=O)(=O)N3CCCC3)ccc21 | -2%

# 4 entries from above, set out differently.
> CCOC(=O)C1=CN(CC(=O)Nc2cc(C)ccc2OC)S(=O)(=O)N=C1C
  hNpr1 antagonist: 1%

> O=C(Cn1nc2c(cc1=O)CCCC2)NCc1nnc2ccccn12
  hNpr1 antagonist: 0%

> COC1CCOC2(CCN(S(=O)(=O)c3ccc(F)cc3)CC2)C1 (configuration not stated)
  hNpr1 antagonist: -2%

> O=C1NC2(CCN(C(=O)c3ccccc3F)C2)OCc2ccccc21 (configuration not stated)
  hNpr1 antagonist: -1%

# The results go on.
Structure | hNpr1 antagonist
O=C1OC[C@@H]2CCN(Cc3ccccc3Cl)Cc3ccc(F)cc3N12 | -2%[70.6 µM]
COc1cc(CNCc2nnn3c2CN(Cc2ccccc2C#N)C(=O)CC3)cc(OC)c1 | 0%
Cc1cccc(C(=O)N[C@@H](Cc2ccccc2)C(=O)N2CCCOCCNC(=O)CC2)c1 | -19%
CCCn1c(C)cnc1CC1CCN(S(=O)(=O)c2cnn(CC)c2)CC1 | -1%
CN1CCC(N(C)CC2CCCN(CCc3ccc(F)cc3)C2)CC1 (configuration not stated) | -1%
COc1ccc(CN[C@H]2C[C@H]3C(=O)NC[C@@H](CCC(=O)N4CCC(O)CC4)N3C2)cc1 | -1%[70.6 µM]
CC(=O)Nc1cccc(-c2n[nH]c3c2CC(=O)N(Cc2ccccc2)C3)c1 | -26%[70.6 µM]
COCCOC1CN(C2CCN(S(C)(=O)=O)CC2)C12CCCCC2 (configuration not stated) | 1%
COCCCn1c(C)cnc1C1CCN(C(=O)Nc2ccc(C)c(C)c2)C1 (configuration not stated) | -3%
CCS(=O)(=O)N1C[C@@H](C(=O)NCc2ccc(C(C)C)cc2)[C@H](c2ccncc2)C1 | 2%
Cc1ccc2nc(NC(=O)C3CC(=O)N(c4n[nH]c5cccc(F)c45)C3)sc2c1 (configuration not stated) | -11%
CS(=O)(=O)Nc1ccc(C2(C(=O)NCc3cccc(Cl)c3)CCCCC2)cc1 | -1%
O=C(CC1CCCC1)NCCC1CCN(C(=O)Nc2cc(F)ccc2F)CC1 | -10%
COCCN1C(=O)[C@@H]2C[C@@H](CN2C(=O)c2ccccn2)Oc2ccccc21 | 1%[70.6 µM]
O=C1NC(C(=O)NCc2cccs2)Cn2cccc21 (configuration not stated) | 0%
COc1cc(Cl)cc(CN2CCC3(CCCNC3)C2)c1OC (configuration not stated) | -16%
Cc1ccccc1[C@H]1C[C@@H](O)[C@@H](O)[C@@H]1NC(=O)c1ccc(C(F)(F)F)cc1 | -1%[70.6 µM]
COc1ccc(C(=O)N2CCc3ccc(C(=O)NCC(C)C)cc32)cc1 | -12%
Cc1ccn(CC(=O)N2CC(F)(F)C[C@H]2c2nc(C3CC3)no2)n1 | -4%
CSCc1nc(CNc2nc(C3CCCC3)nc3c2cnn3C)cs1 | 8.9µM*
O=C1CN(C(=O)CCC(=O)N2CCCC(Cc3nncn3-c3ccccc3)C2)c2ccccc2N1 (configuration not stated) | 3%
Cn1nccc1C(=O)NCC1Cn2cccc2CN1Cc1ccccc1 (configuration not stated) | -5%
COCc1cc(=O)n(CC(=O)Nc2cc(OC)ccc2OC)c(N2CCOCC2)n1 | -9%
COc1ccc(C(=O)Nc2ccc([C@H]3OCC(=O)N(CCN)[C@@H]3CO)cc2)cc1 | 0%[70.6 µM]
CCN1C(=O)C2CC3(CCN(C(=O)NCc4ccccc4)CC3)CN2C1=O (configuration not stated) | 2%
O=C(Cc1cccc(C(F)(F)F)c1)N1CCCc2ncc(C(=O)N3CCCC[C@@H]3Cc3ccccc3)cc21 | -4%
CCC(=O)N1CCN(c2nc3c(s2)CC(C(=O)N2CCC(C)CC2)CC3)CC1 (configuration not stated) | -3%
COCCNC(=O)[C@@]12CCCC[C@H]1N(CCC(C)C)C(=O)CC2 | 2%
O=c1[nH]c(N2CCOCC2)nc2c1CCN(S(=O)(=O)c1ccccc1F)CC2 | -11%
O=C(NC1CCOCC1)c1ccc(OC2CCN(Cc3ccccn3)CC2)cc1 | 0%
CC(C)C[C@@H]1N[C@H](C(=O)N2CCOCC2)Cc2c[nH]c3cccc1c23 | 4%[70.6 µM]
CCCOc1ccc(OCCN2CCN(C)C3(CCNC(=O)CC3)C2)cc1 (configuration not stated) | -2%
COc1ccc(CN2C(=O)CO[C@H]3CN(S(=O)(=O)c4ccccc4)C[C@H]32)cc1 | 0%[70.6 µM]
